Screening data as filed in PubChem.
Yeast UUG start = modulators of yeast start codon fidelity, primary screen, whole organism, S. cerevisiae, single point, plate reader; 350,000 compounds, 0.13% hits; activity score, % at 18.7 µM; S. cerevisiae UUG-firefly luciferase reporter, luminescence/redox ratio; AID 602363, 2012;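 active means replicate mean at a twofold rise or more, about +100% in these data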;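 further: firefly luciferase made from a UUG start codon reports start codon fidelity; reporter light over untreated wells divided by growth signal over untreated wells; some hits fall short of that in this replicate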
CSC inhib = cancer stem cell viability inhibitors, primary screen, luminescence. cancer stem cell-like cells viability. inhibition, % at 7.5 µM. 300,000 compounds, 1.1% hits. AID 2717, 2010;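 active means mean at 75% or more and at least half the replicates too; inconclusive means mean and replicates disagree; tested in HMLE shEcad cells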;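 further: 0% = median of negative and 100% = median of positive control wells; the first replicate is given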
Env fusion inh = inhibitors of HIV-1 Env-driven cell-cell fusion, primary screen, HeLa-JRFL effector, CEM21 target cells, luciferase. inhibition, % at 12.3 µM. 360,000 compounds, 1.1% hits. AID 651610, 2012;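 active means mean replicate inhibition score of at least 50 and every replicate individually at or above 50; inconclusive means only one of the two criteria met; inactive means mean below 50 and not all replicates reaching 50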;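 further: 0% = plate neutral controls and 100% = maraviroc near 300 nM; one replicate is shown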
Rce1 inhib = yeast Rce1p protease inhibitors, primary screen, biochemical, fluorescence, cell-free homogeneous; calls only; yeast membranes, quenched prenylated peptide cleavage fluorescence; 290,000 compounds, 0.27% hits; CAAX prenyl protease 2 (Saccharomyces cerevisiae (strain ATCC 204508 / S288c)), Q03530; AID 2563, 2010;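 active means fall in fluorescence gain of 50% or more versus controls, with final raw signal at or below 3038400; inconclusive means same 50% fall but final raw signal above 3038400; inactive means fall in fluorescence gain under 50%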;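 further: plate controls were neutral control wells for no effect and wells lacking membranes for full effect; tested at 10 µM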
MT1-MMP act inh = blockers of MT1-MMP proenzyme processing, primary screen, HT1080 RFP-PRO-GFP cells, GFP/RFP fluorescence. 360,000 compounds, 0.061% hits. AID 651647, 2012. GFP/RFP ratio change, % at 20 µM. GFP/RFP ratio fluorescence, overnight; percent of plate control window, DMSO zero;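 active means GFP/RFP ratio change of at least 30% with cell ATP level not reduced by more than half and red fluorescence within 50% of control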; further: strong numbers were not always called active
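system = RFP-PRO-GFP reporter HT1080 cells | dosing = 20 µM single dose, 1% DMSO | timing = overnight cell settling, then overnight compound exposure, 37 °C, 5% CO2 | read-out basis = GFP/RFP fluorescence ratio | controls = DMSO and RFP-L50D-GFP cell wells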
PABP polyA inh = PABP poly(A) RNA binding inhibitors, primary screen, biochemical, fluorescence polarization, uHTS; Polyadenylate-binding protein 1 (Homo sapiens), P11940; AID 2014, 2009; 290,000 compounds, 1% hits; inhibition, % at 35 µM;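 active means 50% or more with normal probe brightness, or confirmed in later tests; inconclusive means above 50% with abnormal brightness, or retests that disagree; inactive means below 50% or failed in later tests; about a fifth of its hits are not listed in these tables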;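 further: calls also rest on retests at 20 µM and on dose response follow-up; controls were probe without protein and protein plus probe with vehicle; some compounds called inactive have numbers as strong as hits; many hits fall short of the cut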
Target sequence (P11940 whole entry, looked up): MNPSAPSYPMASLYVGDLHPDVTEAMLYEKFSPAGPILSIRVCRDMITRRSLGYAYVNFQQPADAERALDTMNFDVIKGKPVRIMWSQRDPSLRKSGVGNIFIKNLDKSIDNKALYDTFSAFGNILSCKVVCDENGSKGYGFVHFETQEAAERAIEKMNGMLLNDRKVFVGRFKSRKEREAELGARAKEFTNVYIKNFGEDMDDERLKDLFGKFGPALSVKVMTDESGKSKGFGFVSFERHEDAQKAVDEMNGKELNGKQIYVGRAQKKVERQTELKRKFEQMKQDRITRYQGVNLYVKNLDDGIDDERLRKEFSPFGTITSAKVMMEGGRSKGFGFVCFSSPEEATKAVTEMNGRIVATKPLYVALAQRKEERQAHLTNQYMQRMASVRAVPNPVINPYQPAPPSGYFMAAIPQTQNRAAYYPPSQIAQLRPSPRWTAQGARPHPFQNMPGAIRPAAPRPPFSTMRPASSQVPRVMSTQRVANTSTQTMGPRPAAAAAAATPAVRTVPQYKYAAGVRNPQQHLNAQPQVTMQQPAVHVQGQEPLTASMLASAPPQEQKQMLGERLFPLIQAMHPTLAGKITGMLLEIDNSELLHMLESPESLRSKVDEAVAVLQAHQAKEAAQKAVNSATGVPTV
eIF4H FP inh = human eIF4H binding inhibitors, primary screen, translation initiation inhibitor project, biochemical, uHTS, fluorescence polarization. Eukaryotic translation initiation factor 4H (Homo sapiens), Q15056. eIF4H fluorescence polarization binding assay. inhibition, % at 35 µM. 290,000 compounds, 0.94% hits. AID 2012, 2009;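 active means 50% or more with normal probe brightness, or confirmed in later tests; inconclusive means above 50% with abnormal brightness, or retests that disagree; inactive means below 50% or failed in later tests; about a fifth of its hits are not listed in these tables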;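 further: calls also rest on retests at 20 µM and on dose response follow-up; 0% = protein and probe with vehicle and 100% = probe without protein; strong numbers were not always called active; many hits fall short of the cut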
eIF4H FP inh retest = also measured in eIF4H FP inh; calls as there; inhibition, %; compound at 20 µM; confirmation average;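 mean of two retest wells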
PABP polyA inh retest = also measured in PABP polyA inh; calls as there; inhibition, %; compound at 20 µM; confirmation repeats;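 mean of two retest wells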
MT1-MMP act inh RFP = recorded beside MT1-MMP act inh, whose call it bears; RFP signal change, %; measured here: RFP expression control read;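 0 = vehicle wells; hits needed this value within 50% of zero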
The depositor's hits bear a star; i = inactive; ? = inconclusive; nt = not tested or not shown.

SMILES | Yeast UUG start | CSC inhib | Env fusion inh | Rce1 inhib | MT1-MMP act inh | MT1-MMP act inh RFP | PABP polyA inh | eIF4H FP inh | others
Cc1ccc([C@H]2N[C@]3(CCCN(Cc4ccco4)C3=O)[C@H]3C(=O)N(Cc4ccccc4)C(=O)[C@@H]23)cc1 | -7 | nt | -56 | nt | -5 | -2 | nt | nt
Cn1nc(C(F)(F)F)c(-c2ccc(F)cc2)c1NC(=O)c1cccnc1 | -10 | 9 | 0 | i | -6 | -5 | 10 | 0
COc1cccc(-c2ccc(=O)n(CC(=O)Nc3ccc(C(=O)N4CCCC4)cc3)n2)c1 | 2 | -26 | -14 | i | 2 | 1 | 0 | 4
Cc1ccccc1-n1c(SCc2cc(=O)n3ccccc3n2)nc2[nH]ncc2c1=O | nt | -1 | nt | i | -4 | 2 | 3 | -6
COC(=O)c1ccc(/C=C(\C#N)c2nc3ccccc3s2)cc1 | nt | -6 | nt | i | -64 | 5 | 20* | ? | PABP polyA inh retest=87*
Cc1[nH]n(-c2ccc([N+](=O)[O-])cc2)c(=O)c1C=NCCc1c(C)[nH]c2ccccc12 | -14 | 23 | 15 | i | -1 | -14 | -4 | -1
CCCn1cnnc1CNC(=O)C1CCC(=O)N(CCCc2ccccc2)C1 (centres undefined) | -13 | -4 | -1 | i | 1 | 8 | 0 | -3
COC(=O)CN1C(=O)CC(C)(C)S(=O)c2ccccc21 (centres undefined) | 9 | nt | 3 | i | -1 | 5 | -1 | -11
Cc1nnc2ccc(-c3cccc(NC(=O)Cc4cccs4)c3)nn12 | -22 | -1 | 18 | i | 7 | 2 | -15 | 53 | eIF4H FP inh retest=-8;PABP polyA inh retest=6
CCOc1ccccc1NC(=O)CN1C(=O)COc2ccccc21 | 2 | -24 | 0 | i | 3 | 3 | -8 | -11
CCC(=O)c1ccc(O)cc1 | -18 | 3 | 8 | i | 1 | 6 | 4 | -4
C/C(=N\NC(=O)c1ccc(C)cc1C)c1ccc(-n2ccnc2)cc1 | nt | -8 | -64 | i | 14 | 9 | -9 | -15
Cc1ccc(NC(=O)CCNC(=O)c2ccccc2Cl)nc1 | -6 | nt | -15 | i | 0 | 8 | -8 | -2
COc1ccc(CCNCC(=O)Nc2ccc(OC(F)F)cc2)cc1 | -6 | -1 | 9 | nt | 1 | -1 | 0 | -10
N/C(=N\OC(=O)CCc1ccccc1)c1ccc(Br)cc1 | 12 | -7 | nt | i | 8 | 0 | 0 | -4
CN1CCN(Cc2nc(-c3cccs3)no2)CC1c1ccccc1 (centres undefined) | nt | nt | 8 | i | -1 | -1 | 40 | 60 | eIF4H FP inh retest=-3;PABP polyA inh retest=1
Cc1ccc(C)c(OCCn2cc(/C=C(\C#N)C(=O)NCc3ccco3)c3ccccc32)c1 | nt | 22 | 11 | i | 3 | -1 | 0 | 6
CCC(C)c1c(O)nc(SCC(=O)c2ccccc2)[nH]c1=O (centres undefined) | -29 | 4 | 33 | i | 3 | 3 | 7 | -18
Cc1ccc(SCC(=O)N2CC(C)OC(C)C2)cc1 (centres undefined) | -13 | 7 | -25 | i | -4 | -1 | 6 | -1
Cc1c(Cl)cccc1NC(=O)CNC(=O)Cc1n[nH]c(=O)c2ccccc12 | -9 | -1 | -9 | nt | -10 | 1 | nt | nt
COc1cccc(N2CCN(CC(=O)Nc3ccc(S(=O)(=O)N4CCCCCC4)cc3)CC2)c1 | 1 | nt | 10 | nt | -5 | -14 | nt | nt
CSc1ccc(Cn2nnc(C(=O)NCc3ccccc3)c2N)cc1 | -1 | nt | -6 | i | 3 | 1 | -3 | 3
Cc1ccc(C)c(N2CC(C(=O)O)CC2=O)c1 (centres undefined) | nt | -9 | 8 | i | -4 | 3 | 8 | -5
CCOC(=O)CSc1nc2c(sc(=S)n2-c2ccccc2)c(=O)n1-c1ccc(OC)cc1OC | 17 | nt | 26 | i | -6 | -9 | -4 | 6
Cc1ccc(C)c(C(=O)CSc2nc3ccccc3c(=O)[nH]2)c1 | nt | -4 | -13 | i | -2 | -5 | 4 | -2
CCCOc1ccc(/C=N/Nc2ccc(C(=O)O)cc2)c(OCCC)c1 | nt | nt | 1 | i | 1 | 0 | 14 | 3
CCN(CC(=O)N1CCOCC1)S(=O)(=O)c1ccc(C)cc1 | 8 | 0 | nt | i | -2 | 1 | 2 | -1
O=C(N/N=C/C=C/c1ccco1)c1ccncc1 | -14 | -15 | 13 | i | -1 | -5 | 9 | 15
C/C(Cn1nnc2ccccc21)=N\NC(=O)c1cccc(Br)c1 | nt | -7 | -7 | i | 8 | 7 | 3 | -2
Cc1ccc(N(CC(=O)N/N=C/c2cccs2)S(C)(=O)=O)cc1Cl | -12 | -6 | nt | i | 0 | -6 | 2 | 3
COc1ccccc1NC(=O)COC(=O)CCC1CCCC1 | 1 | -3 | 6 | nt | nt | nt | nt | nt
CN(C(=O)c1cccc(NC(=O)Cc2ccc(NC(=O)C3CCN(C(=O)c4ccccc4)CC3)cc2)c1)C1CCCCC1 | -4 | nt | 4 | nt | -2 | -1 | nt | nt
COc1ccc(CN2CCNC(=O)C2CC(=O)NCCSc2nccn2C)cc1OC (centres undefined) | nt | 0 | 15 | i | -3 | 0 | 24 | 24
COc1ccc(S(=O)(=O)N2CCCCCC2)cc1N | nt | 4 | 2 | i | -4 | -4 | 19 | -2
COc1ccc(-c2cc(-c3c(O)c(OC)c4occc4c3OC)[nH]n2)cc1OC | -12 | 14 | nt | i | 0 | -6 | -5 | -5
COc1ccc(/C=N/OC(=O)Nc2ccccc2OC)cc1 | nt | 56 | -393 | i | -5 | -7 | 2 | 1
Cn1nc(C(C)(C)C)cc1C(=O)O | nt | -11 | -2 | i | 1 | 2 | -7 | -10
Cc1cc(C(=O)COc2cccnc2[N+](=O)[O-])c(C)n1-c1ccccc1F | nt | 20 | 18 | i | -16 | -8 | 8 | 8
O=C(Cn1cnc2c(nnn2Cc2ccccc2)c1=O)c1ccc(Cl)cc1 | -10 | 6 | -6 | i | -1 | 0 | 4 | -6
CCCCn1c(N)c(N(CCOC)C(=O)CSCC(=O)Nc2cccc(C)c2)c(=O)[nH]c1=O | -13 | -18 | 8 | i | 2 | 3 | nt | nt
CN(C)c1ccc(C(C(=O)NCc2ccccc2)N(Cc2cccnc2)C(=O)c2snc(C(N)=O)c2N)cc1 (centres undefined) | -4 | nt | 3 | i | -1 | -1 | 4 | -3
Cc1cc([N+](=O)[O-])nn1CCCC(=O)Nc1c(C)n(C)n(-c2ccccc2)c1=O | 0 | -10 | -3 | i | 0 | 0 | -8 | 17
Cc1ccccc1S(=O)(=O)NC(=O)C1(C)CCN1C(=O)C1(c2ccccc2)CCCC1 (centres undefined) | -6 | nt | -40 | nt | -3 | 4 | nt | nt
O=[N+]([O-])c1cccc(S(=O)(=O)N2CCN(S(=O)(=O)N3CCOCC3)CC2)c1 | -10 | -21 | 1 | i | -2 | 1 | -1 | -8
COC(=O)CCNCCSc1nnc(-c2ccco2)n1Cc1ccccc1 | -3 | 0 | -3 | i | 0 | 1 | -5 | -11
CCOC(=O)N1CCN(C(=O)C2CCN(CC3CCCCC3)CC2)CC1 | -6 | -8 | -5 | i | 3 | 6 | 14 | 0
CCN(CC)S(=O)(=O)c1cccc(-c2nnc(SCC(N)=O)n2N)c1 | 5 | -16 | 15 | i | 5 | 3 | 6 | -6
COc1ccc(N2C(=O)c3ccccc3NC2c2ccc(OC)c(CN3CCOCC3)c2)cc1 (centres undefined) | nt | -3 | 14 | i | -4 | 0 | -4 | 0
COc1ccc(N2C(=O)CCC(C(=O)NCCN3CCOCC3)C2c2ccc(OC)c(OC)c2)cc1 (centres undefined) | -7 | nt | nt | nt | -5 | 2 | -2 | 2
C=CCOc1c2ccc(C(=O)N(CC)c3ccc(OC)cc3)cc2nn1C | -18 | -10 | nt | i | 2 | 2 | 4 | -13
O=C(O)CC1(Cc2nc(-c3cccs3)no2)CCCC1 | -15 | -11 | -10 | i | 2 | 2 | 4 | 9
O=C(CCCn1c(SCC(=O)c2ccc(F)cc2)nc2ccccc2c1=O)NCc1ccco1 | -24 | 0 | -24 | i | 1 | -2 | -7 | -6
Cc1nn(CC(=O)N2CCC(N3CCCCC3)CC2)c(=O)c2c1sc1ccccc12 | -12 | -9 | 3 | i | -5 | 1 | 17 | 27
O=C(NCCCN1CCCCCC1)C1CC(=O)N(C2CCCC2)C1 (centres undefined) | 12 | -7 | -2 | i | 2 | 2 | 48 | 37
COc1ccc(Nc2cc(C(=O)NCCCN3CCN(C)CC3)c3ccccc3n2)c(OC)c1 | -23 | -13 | nt | i | 0 | -1 | -9 | -9
CCSc1nc(-c2ccc(OC)cc2)cc(-c2ccc(OC)cc2)c1C#N | -13 | 4 | 66* | i | 0 | 0 | 4 | 3
CCN(CC(=O)Nc1ccccc1Br)C1CCCCC1 | nt | 13 | 4 | nt | -5 | -1 | 21 | 0
Cc1ccccc1C(=O)Nc1cc(S(=O)(=O)N2CCOCC2)ccc1N1CCN(C)CC1 | -11 | -13 | nt | nt | -2 | -1 | nt | nt
CCOC(=O)CCC(=O)Nc1ccc(S(=O)(=O)N2CCC(C)CC2)cc1 | -7 | -15 | -20 | i | 6 | 4 | -8 | -1
COC(=O)c1sc(C(C)(C)C)cc1CS(=O)(=O)c1ccc(Cl)cc1 | nt | -2 | 9 | i | 0 | -2 | 1 | -4
O=C(CSc1nnc2ccccn12)NNC(=O)c1ccc([N+](=O)[O-])cc1 | -6 | 9 | -4 | i | -1 | 3 | 8 | -2

Two successive entries already listed, quoted:
SMILES | Yeast UUG start | CSC inhib | Env fusion inh | Rce1 inhib | MT1-MMP act inh | MT1-MMP act inh RFP | PABP polyA inh | eIF4H FP inh | others
COc1ccc(N2C(=O)CCC(C(=O)NCCN3CCOCC3)C2c2ccc(OC)c(OC)c2)cc1 (centres undefined) | -7 | nt | nt | nt | -5 | 2 | -2 | 2
C=CCOc1c2ccc(C(=O)N(CC)c3ccc(OC)cc3)cc2nn1C | -18 | -10 | nt | i | 2 | 2 | 4 | -13

Of the compounds above, these contain a COOH group:
SMILES | Yeast UUG start | CSC inhib | Env fusion inh | Rce1 inhib | MT1-MMP act inh | MT1-MMP act inh RFP | PABP polyA inh | eIF4H FP inh | others
Cc1ccc(C)c(N2CC(C(=O)O)CC2=O)c1 (centres undefined) | nt | -9 | 8 | i | -4 | 3 | 8 | -5
CCCOc1ccc(/C=N/Nc2ccc(C(=O)O)cc2)c(OCCC)c1 | nt | nt | 1 | i | 1 | 0 | 14 | 3
Cn1nc(C(C)(C)C)cc1C(=O)O | nt | -11 | -2 | i | 1 | 2 | -7 | -10
O=C(O)CC1(Cc2nc(-c3cccs3)no2)CCCC1 | -15 | -11 | -10 | i | 2 | 2 | 4 | 9
